VACV Venus inh – qHTS for Stage-Specific Inhibitors of Vaccinia Orthopoxvirus: Venus Reporter Primary qHTS | Vaccinia virus Venus reporter expression, fluorescence | Potency, µM (doses to about 36.5 µM), without a hit: top-dose activity change, negative = inhibition, usual class: inhibitors | 0.46% of 330,000 active; active means well fitted inhibition curve with a large enough effect; inconclusive means small, poorly fitted or top-dose-only effect; inactive means no such curve, though single readings can be large or run the other way; tested in A549 cells; note: nearly all actives have a fitted effect of over 30% in size; inactives centre near -10
Vaccinia mCherry – qHTS for Stage-Specific Inhibitors of Vaccinia Orthopoxvirus: mCherry Reporter Primary qHTS | Potency, µM (highest dose often 36.5 µM), for inactives: at the highest dose activity change, negative = inhibition, usual class: inhibitors | 0.63% of 310,000 active | Vaccinia virus mCherry reporter infection, fluorescence; about a quarter of the inactives have no number; active = well fitted inhibition curve with a large enough effect; inconclusive = small, poorly fitted or top-dose-only effect; inactive = no such curve, though single readings can be large or run the other way; tested in A549 cells; note: nearly all actives have a fitted effect of over 35% in size; inactives centre near -10
Numbers without * were called inactive; i = inactive; ? = inconclusive; . = no result given; & = joins results of further samples; [ ] = another dose, or the depositor's remark. % is set by controls: 0 for no effect and ±100 for the full control effect; potency is the fitted concentration of half-maximal effect. Compounds were not picked by outcome, and some 0.82% of all compounds hit somewhere here.

Screens in order – VACV Venus inh	Vaccinia mCherry
CN1C(=O)C(C2CCCCC2)C(=O)N(C)C1=O
 : -14.0%	-0.7%
COC(=O)CCCCC1SCC(NC(=O)c2ccccc2)C1Cl (stereo unspecified)
 : -7.3%	i
Cc1cccn2c(=O)c3cc(C(=O)NCC4CCCO4)c(=N)n(CCc4ccccc4)c3nc12 (stereo unspecified)
 : 2.2%	-17.7%
O=C(CSc1nc2ccccc2[nH]1)Nc1c(F)cccc1F
 : -17.9%	-19.2%
CC(NC(=O)COC(=O)CCC(=O)c1ccc(Cl)cc1)c1ccccc1 (stereo unspecified)
 : -0.6%	i
S=C(Nc1ccc(Br)cc1Cl)N1CCN(c2ccccn2)CC1
 : -22.4%	-19.1%
O=S(=O)(Cc1ccccc1)NCC1CCCN(Cc2ccc3nonc3c2)C1 (stereo unspecified)
 : 3.2%	i
CC(=O)Nc1ccc(NC(=O)c2cc(-c3cc(F)ccc3OCC3CCCO3)n[nH]2)cc1 (stereo unspecified)
 : -6.3%	0.5%
CN1CCC(=C2c3ccccc3Sc3ccccc32)CC1
 : ?	?
CCC(C)NS(=O)(=O)c1ccc(OCC(=O)N2CCCCC2)cc1 (stereo unspecified)
 : 0.0%	-1.3%

Fetched by compound from above (2):
Screens in order – VACV Venus inh	Vaccinia mCherry
CCC(C)NS(=O)(=O)c1ccc(OCC(=O)N2CCCCC2)cc1 (stereo unspecified)
 : 0.0%	-1.3%
CN1CCC(=C2c3ccccc3Sc3ccccc32)CC1
 : ?	?

The results go on:
Screens in order – VACV Venus inh	Vaccinia mCherry
CCOC(=O)Cn1c(=O)oc2cc(S(=O)(=O)N3CCn4c3nc3ccccc34)ccc21
 : -6.9%	i
O=C1/C(=C/c2cccc([N+](=O)[O-])c2)CCc2ccccc21
 : -7.9%	-14.5%
Cc1cccc(C(=O)NC(=S)N2CCc3ccccc3C2)c1
 : -10.9%	-2.5%
Cc1nc2ccc([N+](=O)[O-])cc2s1
 : -2.1%	3.4%
O=C1OCCC1Sc1nnc(-c2ccco2)o1 (stereo unspecified)
 : -9.0%	.
Cc1cccc(C(C)C)c1NC(=O)c1ccc2c(c1)CCCN2S(C)(=O)=O
 : 2.4%	-11.0%
N#CC1=C(N)Oc2n[nH]c(-c3cccnc3)c2C1c1ccc([N+](=O)[O-])o1 (stereo unspecified)
 : 25.8%	3.6%
CC(C)CNS(=O)(=O)c1ccc(S(=O)(=O)N2CCN(CCC#N)CC2)cc1
 : -3.6%	-14.9%
Cc1nn(CC(=O)NC2CCC(C)CC2)c(=O)c2c1sc1ccccc12 (stereo unspecified)
 : -4.7%	-9.3%
CCOc1cc(/C=C2\NC(=O)NC2=O)ccc1OC(C)C(=O)O (stereo unspecified)
 : -23.1%	-1.9%
O=C(CCC(=O)c1cccs1)OCC(=O)N1CCN(C(=O)c2ccco2)CC1
 : -2.2%	.
CCN(CC)C(=O)CSc1nnc(SCc2ccc(Cl)cc2)s1
 : ?	?
COc1ccccc1NC(=O)Nc1nnc(CC(=O)Nc2ccccc2C)s1
 : -1.8%	i
COC(=O)c1cc(-c2ccc(Br)cc2)on1
 : 2.0%	-14.2%
Cc1cc(C)cc(NC(=O)c2sc3nc[nH]c(=O)c3c2C)c1
 : -16.8%	-18.4%
CCS(=O)(=O)N1CCC(C(=O)NCc2cc(OC)ccc2OC)CC1
 : -2.1%	-14.1%
NC(Cc1ccc(Cl)cc1)c1csc(Nc2cc(NCCCO)ncn2)n1 (stereo unspecified)
 : ?	?
CCCCCN(C(=O)CCC(=O)OC(C)C(=O)NC1CCCCC1)c1c(N)n(CCCC)c(=O)[nH]c1=O (stereo unspecified)
 : -8.9%	i
Cc1ccc2c(COC(=O)c3c(C)noc3C)cc(=O)oc2c1
 : -15.8%	i
CCCn1nc(C(=O)NNC(=O)CSC(C)C(=O)Nc2cc(C)on2)c2ccccc2c1=O (stereo unspecified)
 : -13.5%	-24.1%
Cc1cc(=O)oc2cc(OCC(=O)N3CCC(C(N)=O)CC3)ccc12
 : -5.9%	-2.9%
CC(=O)C1=C(O)C(=O)N(c2cccnc2)C1c1ccc(Cl)cc1 (stereo unspecified)
 : ?	-10.6%
O=C(CCCn1cnc([N+](=O)[O-])n1)Nc1ccc(Cl)c(Cl)c1
 : -28.8%	-20.1%
Fc1cccc(Cl)c1CNCc1ccccc1Cl
 : -20.4%	-11.8%[1.46 µM]
Cc1ccc(CNC(=O)c2cc(C)nc3c2c(C)nn3-c2ccc(C)cc2)cc1
 : -16.1%	-21.3%
Nc1ncnc2nc(SCC(=O)Nc3cccc(C(F)(F)F)c3)[nH]c12
 : -5.1%	-3.3%
Cc1cccc(CCNC(=O)CN(C)S(=O)(=O)c2ccc3c(c2)c(=O)n(C)c(=O)n3C)c1
 : -14.5%	-10.5%
COc1ccc(-c2nnc(OCc3nc4ccccc4n3C)c3ccccc23)cc1
 : -8.7%	-21.9%
CCOC(=O)CN1C(=O)S/C(=C/c2ccc(O)c([N+](=O)[O-])c2)C1=O
 : -14.9%	?
COCCNc1ccc(N2C(=O)CCCC2=O)cc1[N+](=O)[O-]
 : 14.4%	i
COCCNC(=O)CSc1nnc2[nH]c(=O)cc(C)n12
 : 0.8%	-8.8%
COc1ccc(/C=N/NC(=O)CN(Cc2ccccc2)S(=O)(=O)c2ccc3c(c2)OCCO3)cc1
 : -21.8%	-9.2%
COC(=O)[C@]12CCCCC=C1N(Cc1cccc3ccccc13)C(=O)[C@H](CC(=O)NCc1ccc(OC)c(OC)c1)C2
 : -25.9%	?
CCCc1c(C(=O)NNc2cc(C(F)(F)F)ccc2Cl)cnn1-c1ccccc1
 : -10.5%	-18.7%
CCCCSc1nnc(-c2ccc(NC(C)=O)cc2)n1C
 : -11.4%	-14.2%
O=C1NC(c2ccccc2)=C(c2ccc3ccccc3n2)C(c2ccc(F)cc2)N1 (stereo unspecified)
 : ?	i
CSc1ccc(/C=C(/NC(=O)c2ccco2)C(=O)N2CCOCC2)cc1
 : -14.8%	i
Cc1ccc(-n2ncc3c(=O)[nH]c(SCC(=O)N4CCCc5ccccc54)nc32)cc1
 : -11.9%	-11.1%
CC(C)Cc1nc2cc(NS(=O)(=O)N(C)C)cc(C(=O)N3CC4(C)CC3CC(C)(C)C4)c2n1C (stereo unspecified)
 : 14.5%	-2.5%
CCc1ccc(Cn2nnc(C(=O)NCc3ccccc3OC)c2N)cc1
 : -5.7%	-7.7%
O=C(CSC1=NS(=O)(=O)c2cc(F)ccc2N1)NCc1ccc(F)cc1
 : -4.6%	-15.8%
Nc1c(C(=O)N2CCOCC2)sc2nc3c(cc12)CCCC3
 : -11.4%	17.7%
CCOC(=O)C1C(=O)CC(C)(O)C(C(=O)OCC)C1c1ccc(OC)cc1 (stereo unspecified)
 : -7.1%	i
C/C(=N\NC(=O)C1COc2ccccc2O1)c1cc2ccccc2o1 (stereo unspecified)
 : -18.9%	i
CCOC(=O)C1=C[C@]2(CC)CCCN3CCc4c(n1c1ccccc41)[C@@H]32
 : -11.8%	-1.8%
c1ccc(-n2ncc3c(N4CCCCC4)ncnc32)cc1
 : -13.9%	-12.0%
Cc1cc(C)cc(NC(=O)CCCc2nc(-c3ccccc3Cl)no2)c1
 : -0.7%	3.1%
O=C1NC(=O)C(=Cc2ccc(Sc3ccccc3)o2)C(=O)N1
 : -1.9%[7.34 µM]	-27.7%[7.34 µM]
Nc1cc(=O)c2[nH]cnc2[nH]1
 : -10.3%	i
COc1ccccc1/C=C/c1nc(S(=O)(=O)c2ccccc2)c(N(C)C)o1
 : -11.3%	-19.2%

Continuation:
Screens in order – VACV Venus inh	Vaccinia mCherry
CCOC(=O)c1c(C)[nH]c(C(=O)NCc2ccccn2)c1C
 : -12.3%	-0.2%
CCC1CCCCN1C(=O)CSc1nc2c([nH]c3ccccc32)c(=O)n1-c1ccc(OC)cc1 (stereo unspecified)
 : -15.3%	-16.1%
CCC(Sc1ncccn1)C(=O)Nc1cc(C)on1 (stereo unspecified)
 : 0.0%	i
Cc1ccccc1OCC(=O)Nc1ccc2c(c1)ncn2C
 : -0.5%	-6.5%
Cc1ccc2c(c1)N(CC(=O)Nc1c(C)cccc1C)C(=O)c1cccnc1O2
 : -8.9%	i
CCn1c(SCc2ccc(C(=O)OC)o2)nnc1-c1c[nH]c2ccccc12
 : 2.8%	-20.8%
CC[C@@]12C(=O)N(c3ccc(OC)cc3)C(=O)N1[C@H](c1cccc(C)c1)[C@@H]1C(=O)N(Cc3ccccc3)C(=O)[C@@H]12
 : -5.5%	?
Cc1ccc(-c2csc(NC(=O)c3cnccn3)n2)cc1C
 : -7.1%	-3.4%
CC1C(=O)Nc2ccccc2N1C(=O)c1cccc(C(F)(F)F)c1 (stereo unspecified)
 : -6.5%	8.9%
COc1ccccc1NC(=O)c1ccc(CN2CCOCC2)cc1
 : -13.7%	.
CCc1ccc(OCC(=O)Nc2ccc(N3CCN(S(C)(=O)=O)CC3)cc2)cc1
 : 2.8%	i
O=C(Nc1ncc(Cc2ccccc2Cl)s1)c1ccc2c(c1)CC(c1ccccc1)OC2=O (stereo unspecified)
 : -16.1%	-14.4%
CCOC(=O)c1c(C)[nH]c(C)c1S(=O)(=O)N1CCCC(C(=O)Nc2ccc(F)cc2F)C1 (stereo unspecified)
 : -10.8%	-11.0%
C=Cc1ccc(Cn2c(SCC(=O)N3CCN(c4ccc(F)cc4)CC3)nc3ccccc32)cc1
 : -14.9%	-13.2%
Cc1ccc(N2CCN(C(CCc3ccccc3)C(=O)Nc3c(C)cccc3C)CC2)cc1 (stereo unspecified)
 : -20.0%	?
O=C1NC(=S)N/C1=C/c1ccc(Oc2ccc(C(F)(F)F)cc2[N+](=O)[O-])c(Cl)c1
 : 1.7%	-4.9%
COC(=O)c1ccc([C@@H](O)[C@H](C)C(=O)CC(=O)OC(C)(C)C)cc1
 : 3.2%	-19.8%
CN(C)C(CNC(=O)c1cc2ccccc2o1)c1ccccc1 (stereo unspecified)
 : -12.9%	-25.1%
ClCCOCCCl
 : -11.8%	-1.1%
CC(C)(C)NC(=O)CN(Cc1ccc2c(c1)OCO2)C(=O)CNS(=O)(=O)c1ccccc1
 : -6.3%	-10.9%
CCOc1ccc2nc(Cl)c(C3CC(c4ccccc4)=NN3C(=O)CCC(=O)O)cc2c1 (stereo unspecified)
 : -7.8%	-10.1%
O=C(Nc1cc([N+](=O)[O-])ccc1F)C1CCN(S(=O)(=O)c2cccs2)CC1
 : -11.4%	i
CCCNC(=O)C1(C)CCCN(Cc2cc3ccccc3o2)C1 (stereo unspecified)
 : -5.1%	0.6%
O=C(c1ccsc1)N1CCN(C(=O)c2cccs2)CC1
 : -12.5%	i
CCN1CCN(C(=O)c2ccc3c(c2)N(Cc2ccccc2F)C(=O)c2ccccc2S3(=O)=O)CC1
 : -5.2%	1.6%
O=C1CCCC(=O)N1c1ccc(F)cc1
 : 8.3%	-4.0%
COc1cccc(CNC(=O)CSc2nnc3c(n2)[nH]c2ccc(C)cc23)c1
 : -9.6%	-6.9%
C/C(Nc1ccccc1C(F)(F)F)=C1/CCOC1=O
 : -13.1%	i
COc1ccc2[nH]c(C(=O)Nc3ccc(F)cc3Br)cc2c1
 : -13.7%	i
C=CC(=O)N(CCC)C(c1ccccc1)c1ccccc1OC (stereo unspecified)
 : -14.5%	-14.1%
COCCN(C(=O)c1csnn1)C(C(=O)NC1CCCC1)c1ccccc1 (stereo unspecified)
 : 0.5%	-4.3%
CS(=O)(=O)c1ccc(Cl)c(NC(=O)CSc2nnc(-c3cccs3)n2N)c1
 : -7.9%	-21.4%
COc1cccc(CNC(=O)c2cc(S(=O)(=O)N3CCCCC3)c[nH]2)c1
 : -20.0%&-4.2%	-6.4%
S=C(NCc1ccco1)Nc1ccccc1
 : -14.0%	-10.6%
COc1ccccc1C1CC(c2ccccc2)=NN1S(=O)(=O)c1ccccc1 (stereo unspecified)
 : 2.3%	3.1%
Cc1nnc(SCC(=O)Nc2cccc(N)c2)n1-c1ccccc1
 : -11.7%	-1.2%
Cn1c(NC(=O)c2ccco2)c(-c2ccc(Cl)cc2)c(=O)c2ccccc21
 : -10.4%	-10.6%
CC(C)C1C(=O)N(Cc2cn(Cc3ccco3)nn2)CCS(=O)(=O)N1Cc1ccc(-c2ccncc2)cc1 (stereo unspecified)
 : -16.6%	-6.2%
COc1ccc(CCC(=O)NCc2ccc3c(c2)CCN3C(=O)c2ccc(Cl)cc2)cc1
 : 5.6%	5.3%
O=C(CCN1C(=O)COc2ccccc21)N1CCN(c2ccccc2)CC1
 : 4.7%	-10.6%
CCCC(=O)c1c[nH]c(C(=O)N2CCOCC2)c1
 : -5.0%	-4.3%
CN(C)C(CNS(=O)(=O)c1ccc(F)cc1)c1cccnc1 (stereo unspecified)
 : -4.6%	i
O=C(Nc1cccnc1)OC1CCCC1
 : -9.3%	i
Cc1cccc(-n2c(C)cc(/C=C3\NC(=O)NC3=O)c2C)c1
 : -5.5%	-20.9%
C=CCNC(=O)c1onc(CSc2ccc(F)cc2)c1C(=O)NCC=C
 : -27.8%	-5.2%
CC(NCc1ccccc1)C1COc2ccccc2O1 (stereo unspecified)
 : 3.6%	.
O=C(Nc1cccc(F)c1)c1c(O)c2ccccc2[nH]c1=O
 : 1.1%	-2.1%
CCN(C(=O)c1coc(=O)c2ccccc12)c1ccccc1C
 : 13.5%	13.4%
O=C1c2ccccc2C(c2nnnn2Cc2ccccc2)N1CCc1c[nH]c2ccccc12 (stereo unspecified)
 : -17.1%	i
CC(C)CC(C(=O)Nc1oc(-c2ccccc2)c(-c2ccccc2)c1C#N)N1C(=O)c2ccccc2C1=O (stereo unspecified)
 : -16.5%	-18.4%

Source: PubChem
